# From PubChem
# D2 ag: Beta-Arrestin HTS for Positive Allosteric Modulators of the Human D2 Dopamine Receptor: Agonists | D(2) dopamine receptor (Homo sapiens), P14416 | DiscoveRx PathHunter D2 beta-arrestin, luminescence, 90 min; 100% = 57 uM dopamine signal | activation, % (concentration not given with the values) | 0.084% of 360,000 active; in the data active = activation above about 40%; inconclusive = about 15% to 40%; inactive = below about 15%; further: compound concentration not given in the record; the text of the record calls up to 30% inactive
#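 Agonist mode: compounds alone added to overnight-plated D2 PathHunter cells for 90 min at 37 C, with 57 uM final dopamine (EC100) defining full response. Beta-arrestin recruitment detected by chemiluminescent reagent, read after 1 h at ambient temperature.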
# TRPV1 PAM: HTS Assay for Compounds that Act as Potentiators of the Vanilloid Receptor 1; 0.02% of 320,000 active; potentiation, % at 8.33 µM; AID 540277, 2011; TRPV1-expressing cells, Fluo-8 calcium influx, capsaicin EC20 potentiation; host cell line not named in the record; control for the full effect not named in the record; Transient receptor potential cation channel subfamily V member 1 (Homo sapiens), Q8NER1; active means potentiation above 80%; inconclusive means 30% to 80%; inactive means below 30%; further: 0% is about no effect
# Target sequence (Q8NER1 whole entry, looked up): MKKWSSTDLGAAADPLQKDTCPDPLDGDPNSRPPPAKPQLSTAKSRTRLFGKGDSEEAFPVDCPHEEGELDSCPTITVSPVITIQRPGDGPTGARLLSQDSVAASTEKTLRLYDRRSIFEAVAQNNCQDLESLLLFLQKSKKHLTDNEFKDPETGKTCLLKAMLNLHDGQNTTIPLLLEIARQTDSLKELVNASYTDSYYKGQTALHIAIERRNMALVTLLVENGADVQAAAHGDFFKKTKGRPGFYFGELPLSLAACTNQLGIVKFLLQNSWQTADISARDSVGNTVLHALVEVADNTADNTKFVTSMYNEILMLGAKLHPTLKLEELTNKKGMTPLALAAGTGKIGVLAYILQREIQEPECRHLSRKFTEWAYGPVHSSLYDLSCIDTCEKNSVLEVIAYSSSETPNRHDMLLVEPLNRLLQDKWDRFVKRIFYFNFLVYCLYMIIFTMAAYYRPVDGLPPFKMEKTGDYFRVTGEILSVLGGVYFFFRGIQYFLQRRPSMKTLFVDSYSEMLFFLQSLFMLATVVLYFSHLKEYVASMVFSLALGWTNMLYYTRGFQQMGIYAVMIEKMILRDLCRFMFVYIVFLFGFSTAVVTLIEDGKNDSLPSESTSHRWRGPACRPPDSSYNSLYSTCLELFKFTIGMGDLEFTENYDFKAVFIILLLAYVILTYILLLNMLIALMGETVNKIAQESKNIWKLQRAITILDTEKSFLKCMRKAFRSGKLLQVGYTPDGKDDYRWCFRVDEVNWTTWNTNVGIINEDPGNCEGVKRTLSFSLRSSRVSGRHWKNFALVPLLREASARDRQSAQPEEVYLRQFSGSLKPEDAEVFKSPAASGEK
#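 TRPV1-expressing cells were cultured overnight at 35.5C and loaded with Fluo-8 calcium dye for 40 to 90 min at room temperature. After a 10 s baseline, compound was added and calcium influx was read kinetically for 3 min (ex 480/em 520 nm).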
# CtBP-E1A inh: qHTS Assay for Inhibitors of the CtBP/E1A Interaction; CtBP / adenovirus E1A interaction (AlphaScreen); AlphaScreen GST-E1A/His-CtBP binding, 1536-well; active compounds read low; control for the full effect not named in the record; activity change, % (no concentration beside the values); 0.49% of 340,000 active; AID 651724, 2012; in the data active means activity change below about -65%; inconclusive means about -30% to -65%; inactive means above about -30%; further: on the % scale 0 is the no-effect control and ±100 the full control effect
#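 AlphaScreen with 125 nM GST-E1A and 125 nM His-CtBP (5X stocks) in Tris pH 8.0, 300 mM NaCl, BSA, Tween 20, TCEP. Compounds preincubated 2 h at 37 deg C, then glutathione donor/nickel acceptor beads added for 1 h at 37 deg C in dark.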
# Six1-Eya2 inh: qHTS Assay for Inhibitors of the Six1/Eya2 Interaction. AlphaScreen GST-Six1/His-Eya2 binding, biochemical; active compounds read low; control for the full effect not named in the record. 0.56% of 360,000 active. activity change, % (test concentration not listed); in the data active = activity change below about -65%; inconclusive = about -30% to -65%; inactive = above about -30%; further: on the % scale 0 is the no-effect control and ±100 the full control effect
#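 Six1/Eya2 binding was read as AlphaScreen signal after compounds were pinned into GST-Six1 plus His-tagged Eya2 (5X stock 250/500 nM) in pH 8.0 Tris/NaCl/TCEP buffer, beads added, then incubated 1 h, 37 C, dark.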
# Sfp PPTase inh: qHTS Assay for Inhibitors of Bacillus subtilis Sfp phosphopantetheinyl transferase (PPTase) | AID 1490, 2009 | 3.5% of 310,000 active | 4'-phosphopantetheinyl transferase ffp (Bacillus subtilis), Q9F4F7 | Potency, µM, without a hit: max response, negative = inhibition, usual class: inhibitors | Biochemical Sfp PPTase activity, qHTS; active means well fitted inhibition curve with a large enough effect; inconclusive means small, poorly fitted or top-dose-only effect, or another doubt; inactive means no such curve, though single readings can be large or run the other way;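 further: the enzyme is Sfp with the accession as filed and its product quenches rhodamine fluorescence; potency means the concentration at half of the fitted maximal effect; 0% = enzyme reaction without inhibitor and -100% = no enzyme wells; top concentration of the series not given in the record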
#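 With Hepes-Na pH 7.6 buffer containing 10 mM MgCl2, Sfp (15 nM) modified BHQ-2-YbbR (12.5 uM) using rhodamine-CoA (5 uM). Two reads 30 minutes apart at 525/598 nm yielded each well's rate.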
# D2 potentiator: Beta-Arrestin HTS for Positive Allosteric Modulators of the Human D2 Dopamine Receptor: Potentiators; D(2) dopamine receptor (Homo sapiens), P14416; DiscoveRx D2 beta-arrestin cells, luminescence, 90 min; 100% = 57 uM dopamine signal; potentiation, % (concentration not given with the values); 0.23% of 360,000 active; AID 624464, 2012; active = potentiation of 50% or more; inconclusive = 30% to 50%; inactive = 30% or less;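 further: compound concentration not given in the record; tested on top of an EC20 dose of dopamine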
#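 PathHunter beta-arrestin assay in DiscoveRx D2 cells. Compounds were added with an EC20 of dopamine (50 nM final) for 90 min at 37 deg C. Luminescence was read 1 h after detection reagent, with 57 uM dopamine as the EC100 control.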
# PINK1 expr mod: A Quantitative High throughput Screen to Identify Chemical Modulators of PINK1 Expression; PINK1 immunofluorescence, high-content cytometry, 24 h; Potency, µM (series often up to 76.6 µM), for the others: at the highest dose activation (PINK1 increase), hits mostly activators; 0.2% of 410,000 active; AID 624263, 2012; active = well fitted activation curve with a large enough effect; inconclusive = small, poorly fitted or top-dose-only effect; inactive = flat fitted curve, though single readings scatter; cell line not stated here;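 further: potency means the concentration at half of the fitted maximal effect; % of control where 0% means no effect; nearly all actives have a fitted effect of over 65% in size; a mitochondrial uncoupler was the plate control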
#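 PINK1 protein level read as immunofluorescence by microplate cytometer in a fixed, stained stable cell line after 24 h exposure to five compound concentrations, with CCCP as control.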
# Starred values were filed as active, the others as inactive; u = inconclusive; x = no result given; & = joins results of further samples; [ ] = another dose, or the depositor's remark.
# Each structure is followed by: D2 ag, TRPV1 PAM, CtBP-E1A inh, Six1-Eya2 inh, Sfp PPTase inh, D2 potentiator, PINK1 expr mod
> Nc1c(C(=O)Nc2ccccc2)sc2nc(N3CCOCC3)c3c(c12)CCCC3
    -5.9, x, 1, -8, x, -13, 5.4%
> O=S(=O)(c1ccc(OCC(O)CNCc2ccco2)c(Cl)c1)N1CCOCC1 (stereo not drawn)
    -3.5, 5, 1, -3, u, -2, 1.8%
> COc1ccc2cc(OCC(=O)NNC(=O)Nc3ccc(OC)c(OC)c3)ccc2c1
    -0.3, -1, 0, 3, -10%, -8, -0.4%
> Clc1cccc(CNc2ccn3nc(-c4cccc(OCc5ccccc5)c4)cc3n2)c1
    4.1, x, 2, 2, x, -9, 13%
> Cc1cccc(NC(=O)CSc2nc3ccccc3nc2N2CCCCC2)c1
    -2.4, 8, -6, 36, 10%, -6, 2.1%
> Cc1ccc(C(=O)NCCSc2ccc(Cl)cc2)cc1[N+](=O)[O-]
    -2.8, 14, -3, -1, 24%, -9, 1.8%
> COC(=O)CSC(=S)N1CCCC(C)C1 (stereo not drawn)
    -4.2, -2, 8, 7, -3%, -3, -0.7%
> CCOC(=O)c1nn(-c2ccc3c(c2)OCCO3)cc1O
    -15, -3, 9, -9, 18%, -2, 2.0%
> CC(C)(C)c1ccc(OCCNC(=O)Cc2ccc(F)cc2)cc1
    1.2, 9, 5, -6, 26%, -4, -2.1%
> COCCn1c(C)cc(C(=O)CSc2ccc3ccccc3n2)c1C
    0.3, 0, -7, -19, -10%, -12, 0.2%
> CCCCN(CCCC)CP(=O)(c1ccccc1)c1ccccc1
    -4.5, -22, 6, -1, 12%, -11, -2.1%
> Cn1c(C(=O)NCCCN2CCc3ccccc3C2)cc2c(=O)n(C)c3ccccc3c21
    -1.5, -2, -22, -18, -20%, -12, 2.9%
> COc1ccc2nc3n(c(=O)c2c1)-c1ncccc1C(=O)NC3CC(C)C (stereo not drawn)
    2.9, x, 1, 3, x, x, 1.8%
> Cc1ccccc1-c1nnc(CS(=O)(=O)c2ccccc2)o1
    0.8, u, 3, 7, 7%, -7, -0.3%
> O=C(NCc1ccccn1)c1ccc(CNS(=O)(=O)c2cccc(Cl)c2)cc1
    -1.6, 1, 11, 0, 18%, 3, -1.3%
> COc1cccc2sc(N(CCCN(C)C)C(=O)C(c3ccccc3)c3ccccc3)nc12
    -3.9, -13, -26, -5, -44%, -1, -3.4%
> CC1CCCC(C)N1CC(O)COc1ccc(Cl)cc1 (stereo not drawn)
    -0.2, -8, -1, 2, -7%, -27, -1.8%
> COc1ccccc1CNc1ccc(CNc2ncn[nH]2)cc1
    -1.7, 4, -15, 6, 24%, -12, 2.1%
> NC(=O)NOCc1ncc(C(F)(F)F)cc1Cl
    -1.9, 1, 3, -2, -1%, 3, -0.8%
> CS(=O)(=O)N(CC(=O)N1CCN(c2ccc(F)cc2)CC1)C1CCCCC1
    -0.8, -19, -13, -11, -1%, -11, x
> CC(C)(C)NS(=O)(=O)c1ccc(OCC(=O)Nc2ccc3c(c2)OCCO3)cc1
    -2.6, -10, 1, 6, 2%, -5, 0.1%
> CN(C)S(=O)(=O)c1cccc2nsnc12
    -1.8, -3, 0, -9, 9%, 3, 4.7%[38.3 µM]
> CC(=O)N1CCC(C(=O)Nc2nc(-c3ccccc3)ns2)CC1
    -2.7, 9, 30, 16, 9%, -5, 0.3%[38.3 µM]
> COC(=O)N1[C@H](Cc2ccccc2)C=C[C@]1(C)C(=O)O
    -1.3, u, x, 9, 1%&19%, -6, -0.9%
> CCN(CC)S(=O)(=O)c1ccc(C(=O)OCC(=O)NCCN2C(=O)CSC2=O)cc1
    -1.4, 10, 10, -2, 12%, -10, 1.0%
> CCOC(=O)C1CCN(C(=O)c2ccco2)CC1
    -1.1, 2, -1, 10, 15%, 3, 0.6%
> COC(=O)c1ccc(CSc2nc3ccc(S(=O)(=O)N4CCOCC4)cc3[nH]2)cc1
    3.3, -8, 3, 1, 1%, 1, 0.4%
> CCOc1ccc(NC(=O)CN(C)C(=O)c2n[nH]c(=O)c3ccccc23)cc1OCC
    -5.1, 15, 3, 0, x, -11, 0.4%
> Cn1c(Cn2c(=O)sc3ccccc32)nnc1SCC(=O)N1CCCC1
    3.0, -12, 0, 3, 19%, -4, -0.2%
> COc1cc(-c2noc(C)c2C(=O)NCCc2c[nH]c3ccccc23)cc(OC)c1OC
    -1.3, 5, -12, -3, 7%, -10, 3.0%
> O=C(NC1CCCCC1)C(=S)NCc1ccccc1
    -3.4, -15, 22, 5, 4%, -11, 2.1%
> CC1CCN(Cc2cc(=O)oc3cc4c(cc23)CCCC4)CC1
    -3.8, 17, x, 5, 1%, -23, -0.1%
> O=C(c1cccc(S(=O)(=O)N2CCCC2)c1)N1CCCC(C(F)(F)F)C1 (stereo not drawn)
    0.3, -6, 0, -1, x, 23, 2.7%
> CC(C)C(=O)Nc1ccc2c(c1)C(=O)N(CCC(=O)O)C2=O
    -15, -8, -3, 9, -2%, -9, -1.1%
> COC(=O)c1ccc(Oc2ccc(C(C)(C)C)cc2)c([N+](=O)[O-])c1
    -0.3, -4, 0, 20, -9%, -9, 5.2%
> NS(=O)(=O)c1ccc(NC(=S)NC(=O)c2cccc(Br)c2)cc1
    2.8, -3, x, -1, -14%, -9, 1.8%
> CS(=O)(=O)N1N=C(c2ccco2)CC1c1ccc(Cl)cc1 (stereo not drawn)
    2.2, 20, -15, 3, -5%, -9, 3.5%
> CC1Cc2nc(SCC(=O)N3CCCC3)n(C)c(=O)c2S1 (stereo not drawn)
    -5.9, 5, 5, 5, 4%, -8, -1.1%
> O=C(Nc1ccc(C(=O)N2CCC(O)(c3ccc(Cl)c(C(F)(F)F)c3)CC2)cc1)c1ccc(Br)o1
    -0.7, u, -13, -22, x, -1, -0.9%
> CCCCN(C)CCOc1ccccc1OCC
    -7.5, 4, 7, 1, 6%, -31, -2.6%
> C=Cn1ccnc1P(=S)(c1ccc2c(c1)c1ccccc1n2CC)c1nccn1C=C
    -2.2, u, 10, 0, 8%, -6, 8.7%[38.3 µM]
> CCOC(=O)c1c(-c2ccc(C)cc2)csc1NC(=O)CCSc1nnc2ccccn12
    -7.3, 3, -1, 5, -2%, -3, 2.2%
> CNC(=O)CSc1nnc(-c2cccnc2)n1CCc1ccccc1
    1.1, 23, 7, 12, 3%, -19, 1.4%
> CCOc1cc(N2CCOCC2)c(OCC)cc1NC(=O)CSc1ccccc1C(=O)O
    1.5, -2, -6, -6, x, 2, 0.9%
> CC1CCN(S(=O)(=O)c2cccc(C(N)=O)c2)CC1
    -1.6, -1, 7, -5, 0%, -3, 3.0%
> C/C(=N/NC(=O)CN1CCN(Cc2ccccc2Cl)CC1)c1ccncc1
    -3.7, -3, -12, -5, 6%, -16, -1.6%
> CC1CCCCN1CCNC(=O)c1ccc2c(c1)N(Cc1ccccc1)C(=O)c1ccccc1S2(=O)=O (stereo not drawn)
    -3.5, 5, -4, -2, -5%, -34, 0.5%
> CC12C=CC(=O)C=C1CCC1C2CCC2(C)C(C(=O)CO)CCC12 (stereo not drawn)
    3.7, x, 5, 7, x, 2, 1.7%
> CC(/C=N/NC(=O)CSc1nc2ccccc2n1C)=C\c1ccco1
    -1.3, 23, -13, -22, -20%, -11, 7.6%
> CCN1C(=O)C2(C(C#N)=C(N)Oc3cc(C)oc(=O)c32)c2ccccc21 (stereo not drawn)
    -5.8, u, -1, 4, 5%, -12, -2.8%
> CCn1c(CC(=O)Nc2ccccc2)n[nH]c1=S
    -1.4, 6, 0, 2, u, -3, 2.2%
> CC1(C)C(=O)Nc2ccccc2N1C(=O)COc1ncnc2c(Cl)cc(Cl)cc12
    -0.2, 6, -1, 1, -13%, 2, 9.1%[38.3 µM]
> COc1ccc(Cl)cc1NC(=O)COC(=O)C(CC(C)C)N1C(=O)C2CC=CCC2C1=O (stereo not drawn)
    -2.1, -9, -7, -1, 15%, -6, 1.7%
> O=S(=O)(c1ccc(SCc2c(F)cccc2Cl)nc1)N1CCCC1
    -3.2, x, 2, 12, x, -9, 1.8%
> CCOCCCNC(=O)CCCn1nc(C)n2c(cc3sccc32)c1=O
    -4.5, x, 8, 1, 4%, -4, 3.2%
> CCOC(=O)C1=C[C@@H](C(C)(C)C)N(S(=O)(=O)c2ccc(C)cc2)[C@H]1c1ccc(Cl)c(Cl)c1
    -3.6, x, 2, -2, x, -2, 2.1%
> CCOC(=O)C1CCN(C(=O)C2CCN(S(=O)(=O)c3cc(Cl)ccc3Cl)CC2)CC1
    4.7, 28, -5, -1, -15%, 0, 2.2%[38.3 µM]
> COc1cccc(C2c3[nH]c4ccccc4c3C[C@H]3C(=O)N(CCCO)CC(=O)N23)c1OC (stereo partly drawn)
    3.4, 3, x, -2, 10%, 0, 1.3%
> Cc1ccc(C(O)c2ncc(-c3ccc4ccccc4c3)[nH]2)c(C)c1 (stereo not drawn)
    -1.9, x, -10, -14, x, -6, 5.0%
> O=C(NCCN1CCCCC1)Nc1ccccc1Cl
    -3.7, -21, -1, -3, 16%, -4, 0.0%

# Next results:
# Each structure is followed by: D2 ag, TRPV1 PAM, CtBP-E1A inh, Six1-Eya2 inh, Sfp PPTase inh, D2 potentiator, PINK1 expr mod
> C[C@H](O)[C@@H]1C(=O)N2CCc3c([nH]c4ccccc34)[C@@H]2C[C@@H]1N(C)C(=O)c1ccco1
    -3.7, x, u, 3, x, -2, -0.9%
> C=CCN(CC=C)C(=O)C1CC(=O)N(c2ccc(Br)cc2)C1 (stereo not drawn)
    0.4, -26, 6, 7, -6%, -28, -2.2%
> COC(=O)c1c(-c2snnc2C)n[nH]c1C
    -3.5, 4, 8, 1, 7%, -12, 2.7%
> CN1CCN(CC(=O)c2ccccc2F)CC1
    -2.7, 9, 6, 6, 56µM*, -7, -0.6%

# Marked active in Sfp PPTase inh (from the list above):
SMILES,D2 ag,CtBP-E1A inh,Six1-Eya2 inh,Sfp PPTase inh,D2 potentiator,PINK1 expr mod
CN1CCN(CC(=O)c2ccccc2F)CC1,-2.7,6,6,56µM*,-7,-0.6%
